Screening data as filed in PubChem BioAssay.
DUX4 inh: DUX4-mediated transcription inhibition. hit rate 0.8% among 37,000. AID 1224904. activity change, negative = inhibition, % (no concentration beside the values). 293T-iDUX4 ZSCAN4-Gaussia luciferase reporter, 24 h; active compounds read low;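 active = -10% or lower and over 25 points stronger than a control reporter; inconclusive = -10% or lower with a smaller gap; inactive = above -10%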;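 also: 0% = median of neutral control wells and -100% = median of positive control wells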
DUX4 inh difference: recorded beside DUX4 inh, whose call it bears; Gaussia minus Italica difference, %; measured here: selective DUX4 reporter inhibition;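 worked out from the two reporters; negative = selective loss of the DUX4 reporter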
DUX4 inh control: second read-out of DUX4 inh, no call of its own (marks repeat the call); activity change, negative = inhibition, %; measured here: Italica tet-on control reporter;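 0 = neutral control and -100 = positive control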
Numbers without * were called inactive; u = inconclusive; x = not tested or not shown. The list is partial. The share of hits here may be higher or lower than overall.

DUX4 inh control | DUX4 inh difference | DUX4 inh | Structure
-0.4 | 4.4 | 4.0 | O=C(C[C@H]1C[C@@H]2c3cc(NC(=O)c4cccnc4)ccc3O[C@@H]2[C@H](CO)O1)NCc1cccc(F)c1
-1.2 | 7.3 | 6.1 | O=C(c1cnccn1)N1CC(=O)N2[C@H](C1)[C@@H](c1ccc(C3=CCCCC3)cc1)[C@@H]2CO
-1.1 | 2.0 | 0.9 | C[C@@H]1CCCCO[C@@H](CN(C)Cc2ccc(C(=O)O)cc2)[C@H](C)CN([C@H](C)CO)C(=O)c2cc(N(C)C)ccc2O1
0.1* | -33.3* | -33.2* | O=C(c1ccccc1F)N1CC[C@@H]2[C@H](CO)Nc3ccc(C#Cc4ccc(F)cc4)cc3[C@@H]21
0.5 | 4.4 | 4.9 | CCCNC(=O)N1C[C@@H](O)COC[C@H]2O[C@H](CC(=O)N[C@@H]3CCN(Cc4ccccc4)C3)CC[C@@H]21
2.3 | -4.6 | -2.3 | CN(C)CCCNC(=O)C[C@H]1CC[C@H]2[C@@H](COc3ccc(NC(=O)NC4CCCC4)cc3C(=O)N2C)O1
2.1 | 1.6 | 3.7 | C/C=C/c1ccc([C@H]2[C@@H](CO)N(C(C)=O)[C@@H]2CNC(=O)NCCC)cc1
2.1 | 3.1 | 5.2 | COc1ccccc1NC(=O)N1C[C@@H]2[C@H](c3ccccc31)[C@H](CO)N2CC1CCOCC1
-0.1 | -2.8 | -2.9 | CC[C@@H]1C/C=C\C[C@@H](c2ccc(F)cc2)NC(=O)CCC(=O)N1
5.8 | 0.2 | 6.0 | CN1[C@@H]2Cn3c(ccc(C4=CCCCC4)c3=O)[C@H]1[C@@H](C(=O)NCc1cc(F)cc(F)c1)[C@@H]2CO
2.6 | 2.0 | 4.6 | COCCNC(=O)C[C@H]1CC[C@@H]2[C@H](COc3ccc(NC(=O)c4cc(C)on4)cc3C(=O)N2C)O1
0.7 | -1.0 | -0.4 | C[C@@H]1CN([C@H](C)CO)C(=O)c2cccc(N(C)C)c2O[C@@H]1CN(C)C(=O)Nc1ccc(F)cc1
5.6 | -4.2 | 1.4 | C[C@H](CO)N1C[C@H](C)[C@H](CN(C)Cc2ccc(C(=O)Nc3ccccc3N)cc2)Oc2ccc(NC(=O)Cn3cnnn3)cc2C1=O
2.4 | 1.0 | 3.4 | CO[C@H](CN(C)C(=O)c1ccc2c(c1)OCO2)[C@H](C)CN([C@@H](C)CO)S(=O)(=O)c1ccc(Cl)cc1
1.0 | -4.1 | -3.1 | C[C@H](NC(=O)[C@@H]1[C@@H](CO)[C@@H]2Cn3c(cccc3=O)[C@H]1N2CCC(F)(F)F)c1ccccc1
0.8 | 1.8 | 2.6 | CN1C(=O)c2cc(NC(=O)c3cccc(Cl)c3)ccc2OC[C@H]2O[C@H](CC(=O)NC3CCCCC3)CC[C@H]21
3.3 | -7.1 | -3.7 | COc1cccc(S(=O)(=O)Nc2ccc3c(c2)C(=O)N(C)C[C@H](OC)[C@@H](C)CN(Cc2ccccc2F)[C@H](C)CO3)c1
-1.7 | 4.7 | 3.0 | O=C(C1CCCC1)N1CC2(C1)[C@H](c1ccccc1)[C@@H](CO)N2CC1CC1
x | x | u | COc1cccc(-c2ccc3c(c2)[C@H]2[C@H](CCN2C(=O)c2ccc4c(c2)OCO4)[C@@H](CO)N3C)c1
-5.1 | 4.7 | -0.4 | C[C@H](CO)N1C[C@H](C)[C@H](CN(C)Cc2ccc3c(c2)OCO3)Oc2c(NC(=O)Nc3ccc(C(F)(F)F)cc3)cccc2C1=O
-5.7 | -2.8 | -8.5 | C[C@H](CO)N1C[C@H](C)[C@H](CN(C)S(=O)(=O)c2ccc(C#N)cc2)OCc2ccccc2-c2ccccc2C1=O
3.6 | -4.9 | -1.3 | CO[C@H]1CN(C)C(=O)c2cc(NC(=O)C3CC3)ccc2OC[C@@H](C)N(C(=O)c2ccccn2)C[C@H]1C
-8.7 | 3.5 | -5.2 | CCCC#Cc1ccc([C@H]2[C@@H](CO)N3C(=O)CN(C(=O)Nc4ccccc4F)C[C@@H]23)cc1
-0.5 | 1.4 | 0.9 | O=C(C1CC1)N1C[C@H]2[C@@H](c3ccccc31)[C@@H](CO)N2C(=O)c1ccccn1
-3.3 | 7.3 | 4.0 | Cc1noc(C)c1NC(=O)N[C@@H]1CC[C@@H](CC(=O)NCc2ccc(Cl)c(Cl)c2)O[C@H]1CO
4.2 | -2.9 | 1.3 | C[C@H](CO)N1C[C@H](C)[C@H](CN(C)C)OCc2cn(nn2)CCCC1=O
2.4 | 0.9 | 3.3 | COc1ccc(S(=O)(=O)N(C)C[C@@H]2Oc3c(NC(=O)c4nc5ccccc5s4)cccc3C(=O)N([C@H](C)CO)C[C@@H]2C)cc1
1.4 | 13.8 | 15.2 | Cc1ccccc1S(=O)(=O)N1C[C@@H](O)COC[C@@H]2O[C@@H](CC(=O)N3CCOCC3)CC[C@H]21
2.2 | 0.6 | 2.8 | CC(C)COC(=O)N(C)C[C@@H]1OCc2cn(nn2)CCCC(=O)N([C@H](C)CO)C[C@H]1C
1.5 | 2.9 | 4.4 | C[C@@H]1CN([C@@H](C)CO)C(=O)CCCn2cc(nn2)CO[C@H]1CN(C)S(=O)(=O)c1ccc2c(c1)OCCCO2

Random excerpt: four entries already listed, in no set order.
DUX4 inh control | DUX4 inh difference | DUX4 inh | Structure
1.5 | 2.9 | 4.4 | C[C@@H]1CN([C@@H](C)CO)C(=O)CCCn2cc(nn2)CO[C@H]1CN(C)S(=O)(=O)c1ccc2c(c1)OCCCO2
2.2 | 0.6 | 2.8 | CC(C)COC(=O)N(C)C[C@@H]1OCc2cn(nn2)CCCC(=O)N([C@H](C)CO)C[C@H]1C
3.6 | -4.9 | -1.3 | CO[C@H]1CN(C)C(=O)c2cc(NC(=O)C3CC3)ccc2OC[C@@H](C)N(C(=O)c2ccccn2)C[C@H]1C
-0.5 | 1.4 | 0.9 | O=C(C1CC1)N1C[C@H]2[C@@H](c3ccccc31)[C@@H](CO)N2C(=O)c1ccccn1

Further results follow.
DUX4 inh control | DUX4 inh difference | DUX4 inh | Structure
x | x | u | COc1ccccc1S(=O)(=O)N1CC[C@@H]2[C@H](CO)Nc3ccc(-c4ccccc4F)cc3[C@@H]21
1.2 | 22.2 | 23.4 | COc1ccc2c3c(n(C)c2c1)[C@@H](CO)N(C(=O)CN(C)C)CC31CCN(S(C)(=O)=O)CC1
x | x | u | COCCNC(=O)C[C@@H]1CC[C@@H]2[C@H](COC[C@H](O)CN2Cc2cccc(-c3ccncc3)c2)O1
-1.9 | 8.3 | 6.4 | CCC(=O)N1[C@@H]2c3cccc(=O)n3C[C@H]1[C@H](CO)[C@H]2C(=O)NCc1ccccc1
-1.4 | -1.0 | -2.4 | C[C@H]1CN([C@@H](C)CO)C(=O)c2cc(-c3cccc(F)c3)cnc2O[C@H]1CN(C)C(=O)c1cnccn1
3.0 | 6.7 | 9.7 | CN(C)C(=O)C[C@H]1CC[C@@H](NC(=O)Nc2cccc(F)c2)[C@@H](CO)O1
4.9 | -2.4 | 2.5 | C/C=C/c1ccc([C@@H]2[C@@H](CO)N(C(C)=O)[C@H]2CN(CCC)C(C)=O)cc1
-5.2 | 0.2 | -5.0 | Cc1cccc(S(=O)(=O)N(C)C[C@@H]2OCc3ccccc3-c3ccccc3C(=O)N([C@H](C)CO)C[C@@H]2C)c1
0.9 | 5.2 | 6.1 | O=C(C[C@@H]1CC[C@@H]2[C@H](COC[C@H](O)CN2C(=O)c2ccc3c(c2)OCO3)O1)NC1Cc2ccccc2C1
-3.0 | 5.9 | 2.9 | O=C([C@H]1N[C@H]2c3ccc(-c4ccccc4F)c(=O)n3C[C@H]2[C@@H]1CO)N1CCCCC1
x | x | u | CC(=O)N1CCCCN2[C@H](C1)[C@H](c1ccc(-c3cccc(C)c3)cc1)[C@@H]2CO
0.3 | 1.9 | 2.2 | C[C@@H]1CN([C@H](C)CO)C(=O)c2cc(NC(=O)Cc3ccccc3)ccc2O[C@@H](C)CCCCO[C@@H]1CN(C)Cc1ccncc1
-4.9 | 1.5 | -3.4 | CCC(=O)N1[C@H](CO)[C@@H](c2ccccc2)[C@@H]1CN(C(C)C)S(C)(=O)=O
-0.2 | 3.8 | 3.6 | C[C@@H]1CCCCO[C@H](CN(C)Cc2ccc3c(c2)OCO3)[C@@H](C)CN([C@@H](C)CO)C(=O)c2cc(N(C)C)ccc2O1
0.7 | 7.5 | 8.2 | COc1cccc(NC(=O)N(C)C[C@@H]2Oc3cc(-c4cccc(C(=O)N(C)C)c4)ccc3S(=O)(=O)N([C@H](C)CO)C[C@@H]2C)c1
-2.5 | 2.1 | -0.3 | COc1ccccc1CNC(=O)C[C@@H]1CC[C@H]2[C@@H](COC[C@H](O)CN2Cc2ccc3c(c2)OCO3)O1
3.4 | -6.3 | -2.9 | CN1C(=O)c2cc(NC(=O)c3cccs3)ccc2OC[C@@H]2O[C@H](CC(=O)NCCN3CCCCC3)CC[C@H]21
1.2 | -2.2 | -1.0 | CC[C@@H]1CC=CC[C@@H](C)Oc2ccccc2C(=O)N(C)[C@H](Cc2ccccc2)C(=O)N1 (mixture of isomers)
2.9 | -1.4 | 1.5 | CCC(=O)N1C[C@@H](C)[C@@H](OC)CN(C)C(=O)c2cc(NC(=O)C3CC3)ccc2OC[C@H]1C
3.0 | 7.0 | 10.0 | CCCN1C[C@H](C)[C@@H](OC)CN(C)C(=O)c2ccc(NS(=O)(=O)c3cn(C)cn3)cc2OC[C@H]1C
-0.6 | 1.1 | 0.5 | COc1ccc(S(=O)(=O)Nc2ccc3c(c2)CC(=O)N([C@H](C)CO)C[C@@H](C)[C@@H](CN(C)S(=O)(=O)c2cn(C)cn2)O3)cc1
13.0 | 7.5 | 20.5 | O=C(Cc1ccccc1)N1CC(=O)N2[C@H](C1)[C@H](c1ccc(Br)cc1)[C@@H]2CO
1.6 | 1.7 | 3.2 | C[C@@H]1CCCCO[C@H](CN(C)C(=O)NC2CCCCC2)[C@H](C)CN([C@@H](C)CO)C(=O)c2cc(N(C)C)ccc2O1
2.2 | -4.9 | -2.7 | CCC(=O)Nc1ccc2c(c1)C(=O)N(C)C[C@H](OC)[C@H](C)CN(CC1CCOCC1)[C@@H](C)CO2
-5.5 | 7.1 | 1.7 | CO[C@H]1CN(C)C(=O)c2ccc(NC(=O)c3cnccn3)cc2OC[C@H](C)N(C(=O)C2CC2)C[C@H]1C
0.1 | -3.7 | -3.6 | C[C@@H]1CN([C@@H](C)CO)C(=O)c2cc(NC(=O)CCC(F)(F)F)ccc2O[C@@H]1CN(C)Cc1ccc(-c2ccccc2)cc1
2.8 | 8.1 | 10.9 | O=C(c1ccc(F)cc1)N1CC(=O)N2[C@H](CO)[C@H](c3ccc(-c4cccnc4)cc3)[C@H]2C1
2.3 | -6.1 | -3.8 | COc1ccc(S(=O)(=O)N(C)C[C@@H]2Oc3c(NC(=O)C4CCOCC4)cccc3C(=O)N([C@@H](C)CO)C[C@H]2C)cc1
x | x | u | N#C[C@@H]1[C@@H](c2ccccc2-c2ccccc2)[C@H](CO)N1C(=O)NC1CCCC1
-2.1 | 1.4 | -0.8 | COCC(=O)N1[C@H](CO)[C@H]2c3ccccc3N(C(=O)NC(C)C)C[C@H]21
x | x | u | CN1c2ccc(-c3ccccc3)cc2[C@H]2[C@H](CCN2C(=O)c2ccccc2)[C@H]1CO
3.6 | -0.7 | 3.0 | COc1ccc(S(=O)(=O)Nc2ccc3c(c2)C(=O)N([C@@H](C)CO)C[C@@H](C)[C@@H](CN(C)S(=O)(=O)c2cn(C)cn2)OCCCC[C@H](C)O3)cc1
x | x | u | COc1ccc(C#Cc2ccc([C@H]3[C@@H](CO)N4CCCCN(S(=O)(=O)c5ccccc5)C[C@@H]34)cc2)cc1
6.6 | 8.7 | 15.3 | COc1ccc2c3c(n(C)c2c1)[C@@H](CO)N(C(=O)c1ccccn1)CC31CN(C)C1
8.1 | -9.4 | -1.3 | O=C(NC1CCCCC1)N1CC2(C1)[C@H](c1ccccc1)[C@H](CO)N2CC1CCOCC1
3.6 | -8.9 | -5.3 | CN(C[C@H]1[C@@H](c2ccccc2)[C@@H](CO)N1C(=O)C1CC1)C(=O)c1ccncc1
13.1* | -32.0* | -18.8* | COc1ccc(C#Cc2ccc([C@@H]3[C@@H](CO)N4CCCCN(Cc5ccccc5F)C[C@H]34)cc2)cc1
1.2 | -2.7 | -1.5 | CCC(=O)N1[C@@H](CO)[C@H](c2ccccc2)[C@@H]1CN(C)C(=O)CN1CCOCC1
-1.5 | -1.6 | -3.2 | O=C(NCCN1CCCC1)[C@@H]1N[C@@H]2c3ccc(-c4ccccc4)c(=O)n3C[C@@H]2[C@H]1CO
-0.2 | 1.7 | 1.5 | COc1ccc(NC(=O)N(C)C[C@@H]2OCCCC[C@@H](C)Oc3ccc(NS(=O)(=O)c4cccs4)cc3C(=O)N([C@H](C)CO)C[C@@H]2C)cc1
3.7 | -2.2 | 1.5 | CN(C)C(=O)c1ccc(-c2cccc(-c3nc(C(=O)N(C)C)cc4c3[C@@H](CCO)N([S@](=O)C(C)(C)C)C4)c2)cc1
0.4 | -2.3 | -2.0 | O=C(c1ccc(F)cc1)N1[C@H](CO)[C@@H]2c3ccccc3NC[C@@H]21
3.7 | -3.1 | 0.7 | C/C=C/c1ccc([C@@H]2[C@H](CO)N(C(=O)NCCC)[C@H]2CNC(=O)C2CC2)cc1
4.4 | 16.2 | 20.5 | C[C@H](CO)N1C[C@H](C)[C@@H](CN(C)Cc2ccc(C(=O)O)cc2)OCc2ccccc2-c2c(n(C)c3ccccc23)C1=O
3.5 | -9.8 | -6.3 | C[C@@H]1CN([C@@H](C)CO)C(=O)c2c(c3ccccc3n2C)-c2ccccc2CO[C@H]1CN(C)Cc1ccncc1
15.0 | -6.2 | 8.9 | CNC[C@H]1OCc2ccccc2-c2ccccc2C(=O)N([C@H](C)CO)C[C@@H]1C
-0.6 | 3.1 | 2.5 | CN(C)C(=O)[C@H]1[C@H](CO)[C@H]2Cn3c(ccc(/C=C/c4ccccc4)c3=O)[C@H]2N1C(=O)c1cccnc1
9.1 | -11.5 | -2.4 | CCCNC(=O)N1CC2(CCN(C)CC2)c2c(n(C)c3cc(OC)ccc23)[C@@H]1CO
